Vif TR-FRET – inhibitors of Vif binding to APOBEC3G peptide, primary screen, biochemical, TR-FRET, GST-Vif 1-94, biotin-A3G peptide, dose response retest (AID 1117319); inhibition, %; hits with a dose series show IC50 in µM; hit rate 0.57% among 260,000; TR-FRET GST-Vif / biotin-A3G peptide binding; higher % means a stronger effect; test concentration not given here; strong numbers were not always called active;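 active = above the screen mean plus three standard deviations and confirmed in dose response; inconclusive = results disagree or hit not tested in dose response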;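 note: Vif residues 1-94 fused to GST binding biotinylated APOBEC3G peptide 110-148; 0% = full assay without inhibitor and 100% = GST in place of GST-Vif; retest series ran down from 100 µM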
RanGTP-Impb inh – inhibitors of RanGTP-importin-beta interaction, primary screen, biochemical, FRET, CFP-Ran, YFP-importin-beta, homogeneous | cell-free CFP-Ran/YFP-importin-beta FRET ratio | inhibition, % (no concentration beside the values) | hit rate 1.1% among 300,000 | AID 2216;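 active = most replicates above 15%; inconclusive = exactly half above 15%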;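 note: 0% = DMSO wells and 100% = Ran loaded with GDP instead of GTP; wells of about 40 µL received 100 nL stock; the first replicate is given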
E coli growth – E. coli growth inhibition; AID 1053175; hit rate 0.21% among 330,000; Escherichia coli growth, OD600, 23 h; stronger effect = lower value; OD600 absorbance (test concentration not listed);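 active = OD600 absorbance below the run mean of sample wells minus 3.6 SD, in any replicate, cut at about 0.56 in these data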;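 note: stock transfer was 300 nL into about 60 µL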
FGF22 binding – FGF22 (human) thermal shift binding; recombinant FGF22 thermal shift, SYPRO orange fluorescence; percent of sucrose octasulfate shift, DMSO zero; calls only at 9.99 µM; AID 651658; hit rate 1.5% among 340,000;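 active = melting point raised past a set limit in the mean and every replicate; inconclusive = no clear call; three in four hits are not shown here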
Target sequence (Q9HCT0 whole entry, looked up): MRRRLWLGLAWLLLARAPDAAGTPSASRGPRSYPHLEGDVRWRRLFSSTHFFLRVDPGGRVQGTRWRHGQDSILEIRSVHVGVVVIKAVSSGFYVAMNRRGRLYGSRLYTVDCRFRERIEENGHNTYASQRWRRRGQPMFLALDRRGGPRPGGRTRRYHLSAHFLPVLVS
HNF4A DNA FP – change in binding of human HNF4 alpha to DNA | activity change, % at 10 µM | P41235 | HNF4a-FITC DNA binding, fluorescence polarization, 1 h | hit rate 0.3% among 360,000; in the data active = activity change above about 30%, passing the limit was not always enough;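 note: controls were the assay level and a saturating level of protein; the project sought stronger binding though the title names inhibitors; some compounds called inactive have numbers as strong as hits; positive values seem to mean higher polarization but the record does not say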
Target sequence (P41235 whole entry, looked up): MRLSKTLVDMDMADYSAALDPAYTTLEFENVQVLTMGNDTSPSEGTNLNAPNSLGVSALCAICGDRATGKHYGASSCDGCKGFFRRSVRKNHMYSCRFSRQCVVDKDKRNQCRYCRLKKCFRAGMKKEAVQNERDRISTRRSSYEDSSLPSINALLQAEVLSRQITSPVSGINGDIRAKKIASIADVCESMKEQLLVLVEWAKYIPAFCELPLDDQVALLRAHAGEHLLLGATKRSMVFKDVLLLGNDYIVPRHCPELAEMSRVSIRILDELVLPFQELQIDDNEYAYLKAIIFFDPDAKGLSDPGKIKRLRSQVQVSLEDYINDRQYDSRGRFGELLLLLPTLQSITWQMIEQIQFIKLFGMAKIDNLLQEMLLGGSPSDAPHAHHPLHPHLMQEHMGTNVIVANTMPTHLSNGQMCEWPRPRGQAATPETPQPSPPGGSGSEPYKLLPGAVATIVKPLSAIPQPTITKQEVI
MLL AF4-AF9 inh – blocks AF4 peptide binding to human AF9. P42568. AlphaScreen, biotin-AF4 peptide binding to FLAG-AF9. inhibition, % at 10 µM. hit rate 0.47% among 350,000. AID 651704;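 active = every replicate reaching a set inhibition limit, whatever the replicate mean, cut at about 25% in these data; inconclusive = mean inhibition reaches that limit but some replicates miss it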;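 note: 0% = plate neutral control median and 100% = total signal loss; the record names both 10 and 1 µM as test concentration; the first replicate is given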
UCH37 DUB inh – inhibitors of human deubiquitinating enzyme UCH37; Q9Y5K5; purified proteasome/UCH37, Ub-AMC cleavage fluorescence; inhibition, % (no concentration beside the values); hit rate 0.33% among 330,000; AID 588478;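 active = mean of two replicates above 20%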;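 note: 0% = compound-free wells with enzyme and 100% = wells lacking proteasome; stock transfer was 100 nL into about 20 µL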
Target sequence (Q9Y5K5 whole entry, looked up): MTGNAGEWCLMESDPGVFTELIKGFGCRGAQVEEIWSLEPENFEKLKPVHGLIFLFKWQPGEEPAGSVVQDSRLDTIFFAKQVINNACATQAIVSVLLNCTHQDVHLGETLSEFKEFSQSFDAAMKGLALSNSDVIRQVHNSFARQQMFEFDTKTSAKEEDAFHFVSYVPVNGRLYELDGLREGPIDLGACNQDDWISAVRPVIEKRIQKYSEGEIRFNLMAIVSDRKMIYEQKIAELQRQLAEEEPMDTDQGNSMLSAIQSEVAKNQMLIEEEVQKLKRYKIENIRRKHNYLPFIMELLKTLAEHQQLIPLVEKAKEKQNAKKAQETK
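Material: human UCH37 enzyme supplied as purified proteasome complex. Measure: % inhibition of Ub-AMC cleavage fluorescence. Medium: pH 7.4 Tris-HCl (50 mM) with ovalbumin, ATP-MgCl2, DTT. Times: 30 min preincubation with enzyme, 25 min cleavage at room temperature. Detection: AMC fluorescence intensity at 355/460 nm.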
Active calls of the source: *; i = inactive; u = inconclusive; x = not tested or not shown; + = active, no number; & = joins results of further samples.

#	Structure	Vif TR-FRET	FGF22 binding	HNF4A DNA FP	UCH37 DUB inh	MLL AF4-AF9 inh	E coli growth	RanGTP-Impb inh
1	O=C(NCc1ccccn1)c1cccc(NS(=O)(=O)c2cccc(F)c2)c1	7.4%	i	5.7	4.7	-4.5	0.652	u
2	Cn1c(=O)c2c(SCc3ccccc3)nc(C3CC3)nc2n(C)c1=O	1.4%	i	-1.8	-0.4	4.8	0.725	0.9
3	S=C1N(c2ccccc2)C(c2cccc3ccccc23)N2CCCN12 (stereo unspecified)	-6.1%	x	2.1	-1.9	x	0.743	1.5
4	CCN(CCNC(=O)C1CCN(S(C)(=O)=O)CC1)c1ccccc1	4.0%	x	2.4	1.9	x	0.665	-0.1
5	COc1ccc(NC(=O)CN(c2ccc(OC)c(Cl)c2)S(=O)(=O)c2ccccc2)cc1	x	i	3.5	2.6	2.7	0.705	-0.5
6	COc1cc2ccccc2cc1C(=O)OCC(=O)c1c(N)n(C)c(=O)n(C)c1=O	-12.4%	+	3.3	-150.8	2.3	0.64	x
7	O=C(Nc1ccc2c(c1)OCCO2)c1cc(-n2cnnc2)ccc1Cl	-3.9%	x	2.1	2.8	x	0.724	3.0
8	CC1(C(=O)NCc2ccccc2)CN(S(C)(=O)=O)CC(=O)N1CCCn1ccnc1 (stereo unspecified)	x	i	-1.3	x	-1.7	x	x
9	CC(C)NC(=O)CCCc1c[nH]c2ccccc12	2.5%	i	0.8	2.6	3.0	0.69	u
10	COc1ccc(S(=O)(=O)NC(C)C(=O)O)cc1 (stereo unspecified)	10.7%	i	8.2	0.4	-31.2	0.67	-1.6
11	O=C(O)CC(c1ccccc1)n1cnnn1 (stereo unspecified)	u	x	2.0	0.1	x	0.686	4.8
12	CN(CC(=O)Nc1ccc(Cl)c(C(F)(F)F)c1)C(=O)CCN1C(=O)C2CC=CCC2C1=O (stereo unspecified)	-4.2%	i	-1.9	4.1	-0.5	0.718	0.0
13	CC1CCN(c2c(NCc3ccc(C(=O)NCc4ccco4)cc3)c(=O)c2=O)CC1	x	i	-0.6	3.3	0.3	0.752	8.9
14	O=C(O)COc1ccc(Br)cc1C(c1c(C(=O)O)[nH]c2ccccc12)c1c(C(=O)O)[nH]c2ccccc12	4.5%	x	-19.2	4.7	x	0.731	7.6
15	COC(=O)c1ccccc1NC(=O)C1CCN(S(C)(=O)=O)CC1	-5.0%	x	-1.6	0.0	x	0.728	-2.9
16	C=CCN1C(=O)c2ccc(C(=O)Nc3ccccn3)cc2C1=O	-8.1%	i	-1.8	-0.2	-8.5	0.655	0.3
17	COc1cccc(C2c3c(oc4ccccc4c3=O)C(=O)N2CCCN2CCOCC2)c1 (stereo unspecified)	2.5%&14.5%	x	0.7	2.6	0.6	0.676	-2.9
18	CCn1c(=O)c2cc(C(=O)NCC(OC)OC)sc2c2ccccc21	-0.5%	i	0.1	-360.7	-0.7	0.655	0.7
19	COc1ccc(C2/C(=C(/O)c3ccc4c(c3)CC(C)O4)C(=O)C(=O)N2Cc2ccncc2)cc1 (stereo unspecified)	x	i	-2.0	8.2	1.3	0.659	7.5
20	CCN(CC)CCNC(=O)c1cc2c(=O)n(CC)c3ccccc3c2s1	-4.3%	i	1.1	-264.1	2.5	0.69	-3.8
21	Clc1ccc(/C=N/Nc2ncnc3ccccc23)cc1Cl	-2.9%	x	3.6	x	x	x	2.2
22	COc1ccc(S(=O)(=O)N/N=C\c2ccccc2F)cc1	x	i	1.6	x	-1.0	x	-1.3
23	CCc1cccc2c(N=O)c(O)[nH]c12	x	i	-1.1	4.4	-12.1	0.649	0.1
24	CC1(C)Cc2c(sc3ncn4c(=S)[nH]nc4c23)CO1	x	i	2.3	3.5	-7.4	0.691	2.3
25	CCc1c(C)nc(N2CCN(Cc3ccc4c(c3)OCO4)CC2)[nH]c1=O	1.5%	i	-2.4	1.6	-2.7	0.662	-2.4
26	Clc1ccc(OCc2nc(-c3ccncc3)no2)c(Br)c1	1.1%	i	-1.1	9.2	-7.5	0.715	-3.3
27	CCc1ccccc1NNC(=O)c1snnc1C	0.1%	i	-3.4	-0.9	x	0.693	-1.4
28	Cc1c(C#N)c(O)[nH]c(=O)c1N=Nc1ccc(Br)cc1C(=O)O	9.3%	i	86.4*	x	2.6	x	-2.6
29	COc1ccc(O)c(C(=O)/C=C/c2cc3ccccc3o2)c1	8.2%	x	-4.1	0.3	-1.2	0.702	-0.7
30	COc1ccccc1NC(=O)Nc1ccc(Cl)c(S(=O)(=O)Nc2ccccc2OC)c1	x	x	-1.4	0.2	x	0.717	1.5
31	O=C(c1ccc(S(=O)(=O)Nc2ccccc2)cc1)N1CCC1	-11.0%	i	1.1	3.9	0.6	0.687	5.9
32	CC1=C(C(=O)NC(C)CCc2ccccc2)C2(CCC(C)CC2)OC1=O (stereo unspecified)	25.3%	x	5.5	3.8	x	0.692	u
33	Cc1nonc1CN(C)C(=O)c1cc(COc2ccc(F)cc2Cl)on1	x	i	-2.1	2.4	-3.3	0.673	4.0
34	O=C(CCNC(=O)Cn1cnc2ccccc2c1=O)NCC1CCCO1 (stereo unspecified)	-4.1%	i	1.6	-0.1	-0.1	0.689	1.8
35	S=C(Nc1cccc(Cl)c1)Nc1cccc2cnccc12	u	x	0.8	-0.3	x	0.562	x
36	COc1ccc(CC(=O)NCC2CCCN(Cc3ccc(SC)cc3)C2)cc1 (stereo unspecified)	x	i	-1.4	2.0	3.4	0.713	6.6
37	O=C(N[C@@H](Cc1ccccc1)C(=O)NC1CCCCCC1)c1ccco1	0.2%	x	-0.1	2.5	x	0.673	-5.1
38	O=C(CSc1nnc2c(n1)[nH]c1ccccc12)Nc1ccc2c(c1)OCO2	5.3%	x	3.7	1.5	x	0.755	3.6
39	CC1(c2ccc3c(c2)OCO3)NC(=O)N(CC(=O)NCCC2=CCCCC2)C1=O (stereo unspecified)	-4.1%	x	3.4	-1.2	x	0.698	0.0
40	CCc1ccc(C(=O)CCC2CCCCC2=O)cc1 (stereo unspecified)	-3.3%	x	1.2	-2.2	x	0.695	-1.1
41	Cc1cccc(-n2c(O)c(C=Nc3ccccc3-c3n[nH]c(=S)[nH]c3=O)c3ccccc3c2=O)n1	-16.2%	i	-3.6	6.8	-1.0	0.705	5.3
42	c1ccc(Cn2nnnc2CN2CCOCC2)cc1	18.0%	x	-2.5	-0.7	x	0.725	7.5
43	O=C(CSc1n[nH]c(=O)n1-c1ccccc1)Nc1ccccc1C(F)(F)F	x	i	2.5	2.6	-6.7	0.655	-1.6
44	CCOc1ccc(N(CC(=O)NC2CCCCCC2)S(=O)(=O)c2c(C)[nH]c(=O)[nH]c2=O)cc1	0.1%	i	-2.6	3.6	-1.9	0.718	-0.6
45	Cn1c(=O)c2c(nc(CN3CCc4ccccc4C3)n2Cc2cccc(Cl)c2)n(C)c1=O	19.6%	i	-0.8	23.1*	2.6	0.763	2.0
46	CN1CC2([N+](=O)[O-])CC=C(OCCO)C([N+](=O)[O-])(C1)C2 (stereo unspecified)	-9.4%	i	1.4	-1.0	1.3	0.716	2.4
47	COc1cc(CC(=O)Nc2cccc(C(F)(F)F)c2)cc(OC)c1OC	x	i	-3.4	5.4	-1.7	0.728	1.7
48	CCc1nc2ccc(C(=O)NC(C)(C)C)cn2c1N(CC)Cc1cccc(Br)c1	x	i	-2.0	x	5.0	x	x
49	Cn1c(SCC(=O)C(C)(C)C)nnc1-c1ccncc1	-3.7%	x	11.3	2.3	x	0.636	2.9
50	Cc1ccc2c(c1)N(CC(=O)NCCc1c[nH]c3ccccc13)C(=O)CO2	27.8%	x	-2.6	2.5	x	0.702	-1.3
51	O=C1Nc2ccc(Br)cc2C1(O)Cc1ccccn1 (stereo unspecified)	4.9%	i	-1.6	2.0	5.4	0.602	5.6
52	Cc1nn(Cc2c(Cl)cccc2Cl)c(C)c1NC(=O)c1cc(C(C)C)on1	-2.5%	i	-0.6	2.1	-2.9	0.753	4.6
53	Cc1nnc(SCC(=O)Nc2ccc3c4c(cccc24)CC3)n1C	-3.2%	x	-1.7	-3.0	x	0.722	1.7
54	Cc1cc2c(cc1C)N1C(=O)c3cc4ccccc4cc3NC(=O)C1C(=O)N2 (stereo unspecified)	x	i	1.2	x	-2.1	x	x
55	CCCc1ccc2c(N)c(C#N)sc2n1	x	i	-0.7	-50.1	-37.5	0.68	2.6
56	CCOC(=O)C1(C)CCCN(C(=O)c2ccc3snnc3c2)C1 (stereo unspecified)	x	i	-1.4	x	2.4	x	x
57	COc1cccc(/C=N/NC(=O)c2ccc3nc[nH]c3c2)c1	9.2%	i	-1.9	x	1.1	x	0.6
58	O=C(NCCO)c1ccc2c3n(nc2c1)-c1ccc(Cl)cc1CO3	x	x	3.6	1.6	x	0.664	-0.4
59	CC(=O)NC1(C(F)(F)F)C(=O)N(Cc2ccccc2)C2=C1C(=O)CC(C)(C)C2 (stereo unspecified)	2.4%	x	2.7	2.6	x	0.725	4.0
60	C/C(=N\NC(=S)Nc1ccc(C(C)C)cc1)c1ccc2c(c1)OCO2	11.0%	i	-2.3	x	-3.9	x	-2.1

Following part
#	Structure	Vif TR-FRET	FGF22 binding	HNF4A DNA FP	UCH37 DUB inh	MLL AF4-AF9 inh	E coli growth	RanGTP-Impb inh
61	COc1ccc(S(=O)(=O)N2CCCCCC2)cc1C(=O)N(C)Cc1cccc(OC)c1OC	1.6%	i	4.1	-3.8	-4.2	0.622	1.6
62	O=C(O)c1cccc(NC(=O)C2C3C=CC(C3)C2C(=O)O)c1 (stereo unspecified)	-1.6%	x	-4.8	-1.3	x	0.68	1.0
63	Cc1ccc(C)c(S(=O)(=O)N2CCC(c3nc4c(nnn4Cc4ccc(F)cc4)c(=O)[nH]3)CC2)c1	-1.6%	x	-0.7	1.1	x	0.749	x
64	O=C(O)c1ccccc1-c1ccccc1C(=O)NCc1ccccc1F	x	i	-0.2	0.6	-1.4	0.624	4.6
65	CCn1ccnc1CN(C)C(=O)CCc1nnc(CCCc2ccccc2)o1	9.3%	i	1.5	1.3	-2.4	0.691	6.2
66	Cc1ccc(C(=O)C(C)Sc2nnc(N)s2)cc1 (stereo unspecified)	10.5%	i	2.5	4.8	-4.4	0.71	0.9
67	CNc1c(NS(=O)(=O)c2ccc(OC)c(Cl)c2)c(=O)oc2ccccc12	x	i	0.9	-29.8	1.4	0.681	2.8
68	COCCC(=O)N1CCCC(C(=O)c2ccccc2SC)C1 (stereo unspecified)	3.9%	i	2.9	x	4.3	x	0.9
69	Cc1cc(C(=O)OCC(=O)Nc2c(F)cccc2F)c(C)n1-c1ccccc1	4.4%	i	0.5	-1.3	6.9	0.654	-1.4
70	CCOC(=O)c1ccc(N=c2sc(C(=O)OC)cc(=O)n2Cc2ccco2)cc1	6.3%	i	-0.8	3.0	20.6	0.762	u
71	O=C(NCCc1ccccc1Cl)C1CCC(=O)N(Cc2ccc(Cl)cc2)C1 (stereo unspecified)	1.0%	i	-1.2	2.7	-0.8	0.711	-3.6
72	COc1cc(/C=N/NC(=O)Cc2ccccc2)cc([N+](=O)[O-])c1O	-1.8%	i	5.6	x	3.2	x	-0.8
73	COc1ccc(CNC(=O)C(c2cccs2)N(C(=O)c2csnn2)C2CC2)cc1 (stereo unspecified)	-8.5%	x	2.0	4.7	x	0.679	u
74	CC1(C)CC(=O)C(C(O)c2ccc([N+](=O)[O-])cc2)C(C)(C)N1 (stereo unspecified)	9.6%	i	1.3	4.5	2.1	0.649	-1.7

This is a subset (hit frequency here may not be typical).
